Mtb hypoxia inh = reduces hypoxia-regulated biosensor signal in M. tuberculosis; 0.1% of 300,000 active; M. tuberculosis hypoxia-regulated fluorescent reporter, fluorescence; fluorescence inhibition, % (no concentration beside the values); AID 1159583;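 active means 35 to 45% if threefold the growth effect, above 45% if 1.5-fold the growth effect; inactive means the rest, general growth blockers included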;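 further: wells of about 50 µL received 100 nL stock; 0% = vehicle wells and 100% = reference inhibitor wells; whole bacteria with a GFP reporter of the hypoxia response; strong numbers were not always called active; many hits fall short of the cut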
PrP UTR inh = suppresses PrP 5' UTR mRNA reporter expression; cell-based PrP 5' UTR mRNA reporter, plate reader; inhibition, % (test concentration not listed); 0.35% of 340,000 active; AID 488862;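 active means every replicate at 50% or more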;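 further: 0 = median of the neutral control wells; tested in H4 reporter cells; numbers are from one replicate; inactives centre near -14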
Sa ugtP lethal = compounds lethal to S. aureus RN4220 ugtP deletion mutant | AID 1259309 | 0.54% of 330,000 active | OD600 growth, 16 h; some inactives read as strong as hits | growth inhibition, % (no concentration beside the values);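 active means z-score under -3 and OD600 up to 0.15 on both plates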;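 further: plate controls were untreated wells for no effect and antibiotic for full effect; wells of about 80 µL received 100 nL stock; the first replicate is given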
Bead autofluor = flagged as autofluorescent in microsphere protease counterscreen; 3.1% of 360,000 active; compound autofluorescence counterscreen, microsphere flow cytometry; hits give high values; fluorescence intensity (concentration not given with the values);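 active means at least 3 SD above the mean of all compounds, about 16000 in these data; inconclusive means too few beads counted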;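 further: 100 nL of 1 mM stock went into each well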
Sa RN4220 lethal = kills Staphylococcus aureus RN4220 | AID 1259311 | 0.33% of 330,000 active | S. aureus RN4220 growth, OD600, 16 h | inhibition, % (test concentration not listed);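 active means z-score of -3 or lower and OD600 up to 0.18 on both plates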;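 further: plate controls were untreated cells for no effect and reference antibiotic for full effect; stock transfer was 100 nL into about 80 µL; one replicate is shown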
BJeLR viability = kills HRASV12-expressing BJeLR cells; AID 1554; BJeLR (HRASV12) viability, CellTiter-Glo ATP luminescence, 48 h; reference of the scale not given here; 0.17% of 300,000 active; inhibition, % (test concentration not listed);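 active means replicate mean above 50%; inconclusive means above 50% but judged a plate artefact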;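 further: 50 nL library stock added to about 25 µL; numbers are from one replicate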
Mtb hypoxia inh growth = also measured in Mtb hypoxia inh; calls as there; growth inhibition, %; measured here: M. tuberculosis growth (absorbance);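 0% = vehicle and 100% = reference antibiotic; read after six days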
* = called active by the depositor; u = inconclusive; x = not tested or not shown.

SMILES	Mtb hypoxia inh	Mtb hypoxia inh growth	PrP UTR inh	Sa ugtP lethal	Bead autofluor	Sa RN4220 lethal	BJeLR viability
COc1ccc(/C=C2\SC(=S)N(CCC(=O)Nc3cccc(O)c3)C2=O)cc1OC	7	6	-31	-1	3225	2.6	-2
CNC(=O)C1(C(F)(F)F)C/C(=C\CCO)CCCO1 (stereo not drawn)	x	x	-17	x	3754	x	-3
CC(C)N1CCN(C(=O)c2ccc([N+](=O)[O-])cc2)CC1	8	3	x	18	x	4.6	-1
CCCCc1ccc(Nc2ncnc3nc[nH]c23)cc1	8	7	-30	9	5078	-4.0	-2
Cc1ccc(-c2cc(C(=O)NN=Cc3cccnc3)n[nH]2)o1	12	14	x	-3	x	-0.4	x
CCNC(=O)Cc1ccc(S(=O)(=O)N2CCOCC2)s1	13	5	-12	7	x	11	x
CCC(C)(C)n1nnnc1CN1CCSCC1	6	-2	-31	18	7246	6.1	-3
Cc1cc(Nc2ccc(C)c(F)c2)n2ncnc2n1	-7	12	-1	-2	9704	8.0	-1
Cc1noc(C)c1C(=O)Nc1nc(-c2ccc([N+](=O)[O-])cc2)cs1	2	-4	-13	-3	6031	0.8	-17
ONC(=Nc1ccccc1)c1ccc(Cl)cc1	4	4	-9	-1	21077*	0.8	-4
CC(C)N(Cc1ccccc1)S(=O)(=O)N(C)C	13	0	-17	-1	3750	-0.8	-3
O=C(CSc1nnc(Cc2ccccc2)n1-c1ccccc1)N1CCOCC1	0	-5	-6	10	16711*	7.3	12
CCC(OC(=O)c1nsc(Cl)c1Cl)C(=O)NCCOC (stereo not drawn)	14	4	7	9	4529	3.4	10
O=C(NCCc1ccccc1)c1ccc(-c2ccccc2C(F)(F)F)o1	10	0	x	7	x	-6.7	x
O=C(CCCN1C(=O)S/C(=C/c2ccccc2)C1=S)Nc1ccc(C(=O)O)cc1	11	4	-8	17	4575	4.8	3
CN(CCCNC(=O)Cn1cc2c(n1)CCCC2)C1CCCCC1	x	x	-24	9	4484	4.9	-2
O=C(CSc1nnc(-c2ccncc2)n1-c1ccc(F)cc1)NC(=O)NCc1ccco1	1	11	-49	5	9757	1.8	-10
CCOc1ccccc1NC(=O)CCC(=O)O	-4	-5	-48	7	5636	3.7	0
O=C(O)c1cc2c(cc1NC(=O)c1c(F)cccc1F)OCCCO2	4	-1	-6	2	6127	1.9	1
Cc1c(CCO)c(=O)n(-c2ccccc2)n1S(=O)(=O)c1c(Cl)cc(Cl)cc1Cl	x	x	-12	1	3820	5.1	9

In the list so far, these contain a nitro group on carbon:
SMILES	Mtb hypoxia inh	Mtb hypoxia inh growth	PrP UTR inh	Sa ugtP lethal	Bead autofluor	Sa RN4220 lethal	BJeLR viability
CC(C)N1CCN(C(=O)c2ccc([N+](=O)[O-])cc2)CC1	8	3	x	18	x	4.6	-1
Cc1noc(C)c1C(=O)Nc1nc(-c2ccc([N+](=O)[O-])cc2)cs1	2	-4	-13	-3	6031	0.8	-17

More compounds
SMILES	Mtb hypoxia inh	Mtb hypoxia inh growth	PrP UTR inh	Sa ugtP lethal	Bead autofluor	Sa RN4220 lethal	BJeLR viability
COc1ccc(C2CC(=O)c3cnn(-c4nc(C)cc(C)n4)c3C2)cc1 (stereo not drawn)	3	2	-9	5	4539	12	x
Cc1ccccc1-n1nnnc1SCC(=O)Nc1ccc(N2CCN(C)CC2)cc1	-8	7	-12	-3	5641	-0.1	-1
Cc1ccc(C(=O)N/N=C(/CC(=O)c2cccs2)C(F)(F)F)cc1	x	x	-54	x	10623	x	-1
C/C(=N\O)C(C)NC(=O)c1ccccc1 (stereo not drawn)	x	x	-11	x	2041	x	-2
CCOc1ccc(CCNC(=O)c2cccc(S(=O)(=O)N3CCCCC3)c2)cc1OCC	1	3	-10	4	u	-0.6	0
COc1ccc(CCNC(=O)CSc2cn(Cc3ccccc3)c3ccccc23)cc1OC	3	4	-29	-2	6450	6.5	7
CCOC(=O)C1=C(C)N(CCCC(=O)O)C(=O)NC1c1ccc(OC)cc1 (stereo not drawn)	-7	0	-21	-3	3961	-1.7	-9
Cc1n[nH]c(C)c1-c1nc2ccccc2[nH]1	x	x	4	3	3628	4.1	-3
Cc1ccc2c(C)nc(SC(C(=O)c3ccccc3)c3ccccc3)nc2c1 (stereo not drawn)	0	-10	10	1	1980	9.2	9
CC(C)NC(=O)CN(C(=O)CCC(=O)Nc1nccs1)c1ccc2c(c1)OCO2	3	12	-26	1	5611	2.4	-1
O=c1[nH]c(SCCOc2ccccc2F)nc2ccccc12	13	1	-24	3	4236	-0.2	-7
CCOc1cccc2sc(N(CCN(C)C)C(=O)c3cc4ccccc4cc3OC)nc12	12	14	-18	2	4348	-6.8	-9
CC(C)=CC1C(C(=O)Nc2ccc(Br)cn2)C1(C)C (stereo not drawn)	x	x	0	6	2617	-1.1	-6
Cc1cc(C)cc(NC(=O)c2ccc(CN3CCc4ccccc4C3)cc2)c1	7	2	-6	10	3877	-0.9	-2
C=C(C)COc1ccc2c(C)c(CC(=O)OC)c(=O)oc2c1C	x	x	-7	5	2798	-0.3	x
CC(NC(=O)COC(=O)C12CC3CC(CC(O)(C3)C1)C2)c1ccccc1 (stereo not drawn)	1	5	3	4	4155	1.8	x
COC(=O)NCCOc1cc(C)ccc1C	11	7	-14	-3	10284	4.3	5
CCOc1ccc2[nH]c(C(=O)N/N=C/c3cccc(OC)c3OC)cc2c1	x	x	-11	x	3198	x	-5
O=C(O)CSc1nnc(COc2cccc3ccccc23)n1Cc1ccccc1	-6	1	-22	6	3280	6.1	0
CCOc1cc(/C=N/NC(=O)c2cccnc2)cc(Br)c1OCC(N)=O	x	x	-23	x	4583	x	6
Cc1ccc(C(=O)NNc2c3ccccc3nc3ccccc23)cc1	x	x	-15	-16	3272	16	6
C=CCn1c(COc2ccc(OC)cc2)nc2ccccc21	13	6	-32	8	3801	0.9	2
O=C(Oc1cc(=O)oc2ccccc12)c1ccco1	x	x	-16	12	4361	4.0	-3
O=C(O)c1ccc(/C=N/NC(=S)NC2CCCCC2)cc1	x	x	-22	x	4591	x	-3
CC(=O)Nc1ccc(-c2csc(NN=C(C)c3ccccc3)n2)cc1	23	35	x	-13	x	3.9	x
COc1ccc(/C=C(/NC(=O)c2ccccc2)C(=O)Nc2cccc(C(=O)O)c2)cc1	7	6	-11	4	5375	0.0	-1
Cc1nc(C)c(-c2csc(Nc3ccc(F)cc3)n2)s1	-2	2	-41	-6	3361	-13	7
COc1ccc(C(=O)N2CCN(Cc3ccccc3C(F)(F)F)CC2)cc1	8	11	-30	5	3521	5.0	3
CCSc1ncc(Cl)c(C(=O)Nc2ccc(S(=O)(=O)Nc3onc(C)c3C)cc2)n1	x	x	11	0	2127	-2.2	-3
O=C(C1CCN(S(=O)(=O)N2CCOCC2)CC1)N1CCC2(CC1)OCCO2	-6	0	-17	-1	22049*	-1.7	-5

Fetched by compound from the entries so far:
SMILES	Mtb hypoxia inh	Mtb hypoxia inh growth	PrP UTR inh	Sa ugtP lethal	Bead autofluor	Sa RN4220 lethal	BJeLR viability
O=C(O)c1ccc(/C=N/NC(=S)NC2CCCCC2)cc1	x	x	-22	x	4591	x	-3
COc1ccc(C(=O)N2CCN(Cc3ccccc3C(F)(F)F)CC2)cc1	8	11	-30	5	3521	5.0	3

(listing goes on)
SMILES	Mtb hypoxia inh	Mtb hypoxia inh growth	PrP UTR inh	Sa ugtP lethal	Bead autofluor	Sa RN4220 lethal	BJeLR viability
COc1ccc2c(-c3ccc(OCCN4CCCCC4)cc3)c(-c3ccccc3OC)sc2c1	2	4	-13	20	3873	-4.7	x
COc1ccc(Cc2nnc(NC(=O)C3CCCO3)s2)cc1OC (stereo not drawn)	6	5	-12	3	3762	3.1	-8
Cc1cc(NC(=O)c2sc(Nc3ccc(F)c(Cl)c3)nc2N)no1	10	2	-23	6	4834	-4.4	-25
CSc1ncc(Cl)c(C(=O)Nc2cccnc2)n1	13	4	-18	3	3809	-1.7	-9
CS(=O)(=O)N1CCN(CC(=O)NC2CCCCC2)CC1	7	4	-25	4	5221	2.8	-3
Clc1ccc(-n2nnc(-c3cccnc3)n2)cc1Cl	4	5	-27	7	3605	4.2	3
COC(=O)C1=C(C)N(c2ccc(C)c(C)c2)/C(=C/c2ccc(O)cc2)C1=O	2	-2	4	91*	2086	93*	-6
Cc1cc(=O)[nH]c(SCC(=O)O)c1C#N	4	4	-16	2	3303	1.7	-11
CN(C)CCNC(=O)c1c(CSc2ccc(Cl)cc2)noc1C(=O)NCc1ccccc1	2	4	-21	5	3940	0.3	-12
CN(C)c1ccc(C(C(=O)NCc2ccccc2)N(Cc2ccco2)C(=O)c2snc(C(N)=O)c2N)cc1 (stereo not drawn)	x	x	-16	x	5080	x	1
CCn1c(CNc2ccc(C)cc2)nnc1SCC(N)=O	7	7	-10	4	10747	0.2	-6
CC(C)n1c(NCCc2ccccc2)nc2c1c(=O)n(C)c(=O)n2C	-4	18	11	8	3478	5.2	22
COC(=O)c1noc(-c2ccc(C)cc2)n1	14	-1	-36	5	23185*	1.7	9
Cc1cc(C(=O)Nc2cc(C)on2)on1	-1	-2	-22	7	5542	6.8	19
CCc1nc2ccccc2n1CC(=O)N1CCN(Cc2ccccc2)CC1	4	1	-11	6	4550	5.1	4
O=C(Cn1nc2ccccc2n1)NN=Cc1ccc(F)cc1	2	-3	x	1	x	0.6	x
N#Cc1c(/N=C/C=C/c2ccccc2)sc2c1CCCC2	x	x	-29	x	11709	x	8
CCOc1ccc(S(=O)(=O)N2CCCC(C(=O)NCc3cccnc3)C2)cc1Cl (stereo not drawn)	17	11	-17	1	5167	3.9	9
Cc1cccc(-c2nnc(-c3ccc(N)cc3)o2)c1	-2	-1	-22	-11	3820	11	-10
CC(C)c1cc(NC(=O)c2ccccc2)cc(C(C)C)c1O	4	2	-6	1	2306	4.7	-15
COc1cc(/C=C/C(=O)O)cc(S(=O)(=O)Nc2ccccc2Cl)c1OC	9	2	-22	-4	2021	0.6	-2
CC(=O)Nc1ccc(/C=N/NC(=O)c2cccc(S(=O)(=O)N3CCOCC3)c2)cc1	x	x	-9	x	2471	x	-10
Cc1ccc(NC(=S)NCc2ccccc2)cc1C	-11	7	-23	3	4412	7.2	-9
O=C(COC(=O)CSc1ccc2ccccc2c1)NC1CC1	-3	9	-10	-2	2510	5.1	-12
CN(CC(=O)NC(=O)NC1CCCCC1)c1ccccc1	-2	-2	-15	11	5398	5.1	x
COC(=O)C1CCN(Cc2c(C(=O)N3C[C@@H](C)O[C@@H](C)C3)nc3ccc(Cl)cn23)CC1	-8	-6	7	1	4009	0.0	-3
COc1ccc(N(CC(=O)Nc2ccccc2OC)S(=O)(=O)c2ccc(NC(C)=O)cc2)cc1	6	-5	-26	3	3970	-2.7	9
COCCn1c(C)cc(C(=O)COc2ncnc3ccc(Br)cc23)c1C	-9	0	-17	-9	3347	-3.2	8
NC(=O)CCC1NC(=O)C2CCCN2C(=O)c2cc([N+](=O)[O-])cc(I)c2NCCCC(C(=O)NC(CC(=O)O)C(N)=O)NC1=O (stereo not drawn)	13	10	x	-1	x	3.7	x
O=C(C1=C[C@H](c2ccccc2)C[C@H](OCc2ccc(CO)cc2)O1)N1CCOCC1	3	3	-32	-3	4248	-8.2	7
COc1ccc(CCNC(=O)c2cccs2)cc1OC	-6	1	-64	4	3164	9.5	-12
O=C(COC(=O)c1ccncc1)c1ccccc1	4	3	-26	13	3265	2.2	5
CCOC(=O)N1CCN(C(=O)C2CCN(S(=O)(=O)c3ccc(C)cc3)CC2)CC1	15	6	-15	-2	10589	6.2	11
CCN1C[C@]2(CO)CC[C@H](OC)[C@@]34C2[C@H](OC)[C@@](O)(C13)[C@@]1(O)C[C@H](OC)[C@H]2C[C@@H]4[C@@H]1[C@H]2OC	5	-1	-7	1	3918	0.3	7
CCNC(=S)NN=Cc1cn(Cc2ccccc2F)c2ccccc12	13	5	x	-16	x	-8.3	x
CC(=O)C1=C(C)NC2(O)c3ccccc3C(=O)C12O (stereo not drawn)	12	14	13	5	2440	4.4	-5
CC(C)c1c(O)nc(SCc2ccc(F)cc2)[nH]c1=O	7	-19	-5	-6	3955	12	0
Cc1ccc(NC(=O)COC(=O)CNC(=O)c2ccc(Br)cc2)c(C)c1	-2	0	-10	1	2243	2.8	7
COc1ccc(OCC(=O)NN=Cc2ccncc2)cc1	-4	9	x	0	x	-2.1	x
CCOC(=O)C1=C(c2ccccc2)Nc2ncnn2C1c1cccc(O)c1 (stereo not drawn)	3	-11	x	0	3410	2.8	3
O=C(NN=Cc1cc(Br)c(O)c(Br)c1O)c1cccnc1	19	0	x	4	x	5.2	x

Source: PubChem BioAssay
